From PubChem BioAssay
CHRM5 agonist – agonists of human muscarinic M5 receptor (CHRM5); P08912; CHO-K1 hM5 cells, Fluo-8 calcium fluorescence; 0% DMSO wells, 100% maximal acetylcholine response; activation, % at 3 µM; 0.19% of 360,000 active;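 active = activation above the run's mean over test compounds plus 3 SD, cut at about 23% in these data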;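 also: signal is peak over basal fluorescence ratio across the kinetic read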
Target sequence (P08912 whole entry, looked up): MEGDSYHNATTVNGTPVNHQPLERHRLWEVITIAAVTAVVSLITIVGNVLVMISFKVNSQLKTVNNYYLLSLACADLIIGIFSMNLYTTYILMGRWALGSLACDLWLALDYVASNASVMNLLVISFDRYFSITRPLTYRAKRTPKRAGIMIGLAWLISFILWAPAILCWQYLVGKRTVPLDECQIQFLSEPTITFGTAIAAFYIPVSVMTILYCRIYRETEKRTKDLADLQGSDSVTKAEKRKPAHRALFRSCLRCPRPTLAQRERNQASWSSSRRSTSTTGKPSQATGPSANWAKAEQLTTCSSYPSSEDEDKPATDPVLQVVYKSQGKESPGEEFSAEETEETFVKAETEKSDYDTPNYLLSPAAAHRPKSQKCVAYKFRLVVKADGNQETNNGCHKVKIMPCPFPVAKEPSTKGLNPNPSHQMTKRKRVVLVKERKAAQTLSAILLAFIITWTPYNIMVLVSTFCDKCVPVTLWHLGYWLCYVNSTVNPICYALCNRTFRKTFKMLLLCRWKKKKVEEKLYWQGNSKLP
CHRM5 PAM – CHRM5 positive allosteric modulation | P08912 | 0.3% of 360,000 active | activation, % at 3 µM | CHO-K1 hM5, Fluo-8 calcium, ACh EC20 PAM; 0% = ACh EC20, 100% = ACh EC100;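 active = activation above the run cutoff, the mean activation of all test compounds plus 3 SD, cut at about 18% in these data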
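Probe or stimulus: acetylcholine, EC20 level; Assay system: human M5 receptor in CHO-K1 cells; Schedule: compound preincubation 140 s before EC20 acetylcholine addition; Technique: intracellular calcium via Fluo-8 fluorescence; Dosing: single-point, 3 µM nominal; Read-out basis: percent activation from peak-over-basal fluorescence ratio, scaled EC20-to-EC100 acetylcholine; Repeats: one well per compound, no replicates.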
M5 antag – blocks acetylcholine activation of human M5 receptor. P08912. CHO-hM5 cells, Fluo-8 calcium fluorescence, ACh EC80. inhibition, % at 3 µM. 0.59% of 360,000 active. AID 624040;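 active = inhibition above a per-plate cutoff, the mean of that plate's test compounds plus 3 SD, cut at about 27% in these data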;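 also: 0% = acetylcholine EC80 with DMSO and 100% = DMSO without agonist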
M4 antag – antagonists of human muscarinic M4 receptor (CHRM4). 0.73% of 360,000 active. CHO-hM4 cells, ACh EC80, Fluo-8 calcium fluorescence. inhibition, % at 3 µM. P08173;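 active = inhibition above its plate's cutoff, the mean inhibition of sample wells plus 3 SD, cut at about 27% in these data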;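 also: 0% = acetylcholine EC80 with DMSO and 100% = DMSO without agonist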
Target sequence (P08173 whole entry, looked up): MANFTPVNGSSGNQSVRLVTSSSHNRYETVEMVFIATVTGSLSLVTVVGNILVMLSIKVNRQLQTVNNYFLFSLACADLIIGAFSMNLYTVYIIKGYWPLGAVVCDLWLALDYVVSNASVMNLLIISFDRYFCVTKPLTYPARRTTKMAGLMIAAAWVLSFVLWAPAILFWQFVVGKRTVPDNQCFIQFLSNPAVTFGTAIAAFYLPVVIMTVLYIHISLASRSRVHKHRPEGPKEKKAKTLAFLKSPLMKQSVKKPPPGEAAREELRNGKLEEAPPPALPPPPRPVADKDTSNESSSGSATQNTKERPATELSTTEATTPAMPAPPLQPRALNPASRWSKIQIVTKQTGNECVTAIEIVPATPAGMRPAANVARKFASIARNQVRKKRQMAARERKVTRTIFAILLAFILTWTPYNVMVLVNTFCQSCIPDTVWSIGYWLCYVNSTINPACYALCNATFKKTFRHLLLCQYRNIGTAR
CHRM4 PAM – potentiates acetylcholine response at human M4 receptor; P08173; CHO-K1 hM4/Gqi5, Fluo-8 calcium fluorescence, ACh EC20; 0% = ACh EC20, 100% = maximal ACh; activation, % at 3 µM; 0.4% of 360,000 active;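 active = activation above its plate's cutoff, the mean activation of sample wells plus 3 SD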; also: some results filed as inactive read as strong as hits
CRFBP-R2 block – antagonists of CRF-binding protein/CRF-R2 receptor complex; HEK293 CRF-R2/CRF-BP, CRF-induced calcium fluorescence; inhibition, % at 11.8 µM; 0.59% of 350,000 active; AID 588475;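 active = inhibition of the ligand-induced calcium signal above about 50% at the single tested concentration, limit read from the data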
CRFR2-BP ag – agonists of human CRF-binding protein/CRF-R2 receptor complex | HEK293 CRF-R2/CRF-BP, calcium dye fluorescence (FLIPR); percent of saturating CRF peptide response | activation, % at 13.2 µM | 0.46% of 350,000 active | AID 588473;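 active = activation of at least 50%, plus an integration ratio under a set limit after plate pattern correction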;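 also: plate controls were neutral control wells without compound for no effect and CRF at EC100 for full effect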
Numbers without * were called inactive; x = not tested or not shown; & = joins results of further samples.

Each structure is followed by: CHRM5 agonist, CHRM5 PAM, M5 antag, M4 antag, CHRM4 PAM, CRFBP-R2 block, CRFR2-BP ag
> C[C@](N)(Cc1ccc(O)c(O)c1)C(=O)O
    2, -3, 6, 3, -4, -22, 0.0
> CNS(=O)(=O)Cc1ccc2[nH]cc(CCN(C)C)c2c1
    0&0, 3&7, 0&-4, -16&4, 6&-4, -12&11, -2.5&-0.3
> COc1cc(CNC(=O)CCCC/C=C/C(C)C)ccc1O
    0, 4, -4, -7, 0, -4, -1.0
> Cc1cnc(NC(=O)C2C(=O)c3ccccc3S(=O)(=O)N2C)s1 (stereo not given)
    1, 1, -3, -5, 2, 13, -2.2
> O=C(O)CCNC(=O)c1ccccc1
    1, 5, -2, -4, 0, -8, 0.1
> O=c1[nH]c2ccccc2c2ccccc12
    0, -7, 5, -6, 4, 2, -0.1
> CCCc1ccc(OCC(=O)NNC(=S)NC(=O)c2ccco2)cc1
    -4, 1, 11, 12, 22, -18, 60*
> Nc1nc(N)c2nc(-c3ccccc3)c(N)nc2n1
    2, 8, -2, -3, 3, -12, 0.1
> COc1c(N2C[C@@H]3CCCN[C@@H]3C2)c(F)cc2c(=O)c(C(=O)O)cn(C3CC3)c12
    -1, -3, 4, 3, -4, -6, 3.6
> O=C1NCN(c2ccccc2)C12CCN(CCCC(c1ccc(F)cc1)c1ccc(F)cc1)CC2
    0, -12, 2, 8, -10, -22, -1.6

A different layout for some results above:
CHRM5 agonist	CHRM5 PAM	M5 antag	M4 antag	CHRM4 PAM	CRFBP-R2 block	CRFR2-BP ag	smiles
1	1	-3	-5	2	13	-2.2	Cc1cnc(NC(=O)C2C(=O)c3ccccc3S(=O)(=O)N2C)s1 (stereo not given)
-1	-3	4	3	-4	-6	3.6	COc1c(N2C[C@@H]3CCCN[C@@H]3C2)c(F)cc2c(=O)c(C(=O)O)cn(C3CC3)c12
2	8	-2	-3	3	-12	0.1	Nc1nc(N)c2nc(-c3ccccc3)c(N)nc2n1

Continued.
Each structure is followed by: CHRM5 agonist, CHRM5 PAM, M5 antag, M4 antag, CHRM4 PAM, CRFBP-R2 block, CRFR2-BP ag
> C1CCN2C[C@@H]3C[C@@H](CN4CCCC[C@@H]34)[C@H]2C1
    -1, -15, 10, 4, -14, -15, 2.1
> Cc1ccc(S(=O)(=O)NC(=O)NN2CCCCCC2)cc1
    0, 1, -4, 6, -9, 6, -0.6
> CC(=O)[C@@]1(O)CC[C@H]2[C@@H]3CCC4=CC(=O)CC[C@]4(C)[C@H]3CC[C@@]21C
    0, -2, -7, -2, -5, 11, -0.7
> CS(=O)(=O)c1ccc(C2=C(c3ccccc3)C(=O)OC2)cc1
    0, 2, 0, 5, 1, 11, -2.3
> CCCCC(=O)Nc1nnn(CCC)n1
    1, 8, -12, -4, 18, -1, 1.8
> CCOC(=O)[C@H](CCc1ccccc1)N[C@@H](C)C(=O)N1C(C(=O)O)C[C@@H]2CCC[C@@H]21 (stereo not given in full)
    1, 3, -10, -3, 4, -37, 2.2
> CC12CCC(=O)C=C1CCC1C2C(O)CC2(C)C1CCC2(O)C(=O)CO (stereo not given)
    0, 4, 5, 4, 0, 17, -1.9
> CC(=O)Oc1ccccc1C(=O)O
    1, -1, 5, -8, 12, 1, -2.5
> CCn1cc(C(=O)O)c(=O)c2cc(F)c(N3CCNCC3)cc21
    0, 6, -10, -21, 0, x, x
> CC(C)[C@H](N)C(=O)OCCOCn1cnc2c(=O)[nH]c(N)nc21
    1&0, -2&0, -3&-3, 2&-14, 2&2, 9&19, -0.9&1.2
> Cc1ncc([N+](=O)[O-])n1CCO
    0, 1, -4, -2, 3, -9, -0.5
> Cc1cc2cc3c(C)cc(=O)oc3c(C)c2o1
    -3, -4, 13, 9, -6, 8, 0.1
> CCN1CCCC1CNC(=O)c1cc(S(N)(=O)=O)ccc1OC (stereo not given)
    0, 0, 1, -1, -2, -3, -0.6
> CC(C)C[C@H]1C(=O)N2CCC[C@H]2[C@]2(O)O[C@](NC(=O)[C@@H]3C=C4c5cccc6[nH]c(Br)c(c56)CC4N(C)C3)(C(C)C)C(=O)N12 (stereo not given in full)
    0, -2, 4, -7, -4, -14, 0.0
> CC[C@H]1OC(=O)[C@H](C)[C@@H](O[C@H]2C[C@@](C)(OC)[C@@H](O)[C@H](C)O2)[C@H](C)[C@@H](O[C@@H]2O[C@H](C)C[C@H](N(C)C)[C@H]2O)[C@](C)(OC)C[C@@H](C)C(=O)[C@H](C)[C@@H](O)[C@]1(C)O
    0, 1, -9, -6, -3, -5, 0.1
> CN(Cc1cccnc1)C(=O)c1cc(COc2ccc3ncccc3c2)on1
    8, -33, 43*, 44*, -26, 4, 1.4
> CCC(C(=O)OCCN(CC)CC)c1ccccc1 (stereo not given)
    -1, -18, 68*, 54*, -17, 5, -1.7
> NC(N)=NC(=O)c1nc(Cl)c(N)nc1N
    -1&-2&-9, 15&-5&6, -9&-3&1, 8&9&-2, -4&-8&3, -44&-3&7, 0.1&0.2&-0.1
> NS(=O)(=O)c1cc2c(cc1Cl)NCNS2(=O)=O
    0, 0, 1, -10, 2, 21, 2.4
> CC1=C(/C=C/C(C)=C/C=C/C(C)=C/C(=O)O)C(C)(C)CCC1
    0, 8, -9, 0, -7, -5, -0.3

Continued (5 carried over from the part before).
Each structure is followed by: CHRM5 agonist, CHRM5 PAM, M5 antag, M4 antag, CHRM4 PAM, CRFBP-R2 block, CRFR2-BP ag
> CN(Cc1cccnc1)C(=O)c1cc(COc2ccc3ncccc3c2)on1
    8, -33, 43*, 44*, -26, 4, 1.4
> CCC(C(=O)OCCN(CC)CC)c1ccccc1 (stereo not given)
    -1, -18, 68*, 54*, -17, 5, -1.7
> NC(N)=NC(=O)c1nc(Cl)c(N)nc1N
    -1&-2&-9, 15&-5&6, -9&-3&1, 8&9&-2, -4&-8&3, -44&-3&7, 0.1&0.2&-0.1
> NS(=O)(=O)c1cc2c(cc1Cl)NCNS2(=O)=O
    0, 0, 1, -10, 2, 21, 2.4
> CC1=C(/C=C/C(C)=C/C=C/C(C)=C/C(=O)O)C(C)(C)CCC1
    0, 8, -9, 0, -7, -5, -0.3
> C#C[C@]1(O)CC[C@H]2[C@@H]3CCc4cc(OC)ccc4[C@H]3CC[C@@]21C
    2, -5, 1, -8, 3, -40, 0.2
> Cc1cc(=O)n(-c2ccccc2)n1C
    2, -1, -7, -13, 1, 7, 0.5
> NC[C@H]1O[C@H](O[C@H]2[C@H](O)[C@@H](O[C@H]3O[C@H](CO)[C@@H](O)[C@H](N)[C@H]3O)[C@H](N)C[C@@H]2N)[C@H](N)C[C@@H]1O
    1, -1, -1, -2, 3, 11, -0.8
> COc1cccc(CNc2nc(NCc3cccs3)nc3ccsc23)c1
    27*, -20, 44*, 49*, -16, x, x
> CN1C2CCC1CC(OC(=O)c1c[nH]c3ccccc13)C2 (stereo not given)
    -1&-6, -6&-6, 2&8, -10&12, -1&2, -21&-12, 0.4&-0.1
> CCN(CC)CCCC(C)n1c2nc(=O)[nH]c(=O)c-2nc2cc(Cl)ccc21 (stereo not given)
    438*, -39, 41*, 39*, -12, -191, 192*
> Nc1ccn([C@@H]2O[C@H](CO)[C@@H](O)C2O)c(=O)n1 (stereo not given in full)
    1, 4, -2, 0, 1, 4, -1.4
> CC(N)C12CC3CC(CC(C3)C1)C2 (stereo not given)
    2&1, -8&-2, 3&2, 2&-4, -5&-4, -13&2, -0.3&1.4
> COC1=CC(=O)C[C@@H](C)[C@]12Oc1c(Cl)c(OC)cc(OC)c1C2=O
    2, -1, 0, -9, -7, 6, 1.1
> CC(=O)OCC(=O)C1(O)CCC2C3CCC4=CC(=O)CCC4(C)C3(F)C(O)CC21C (stereo not given)
    2, 1, 4, 0, 7, 17, -3.7
> CCC(=O)OC1(C(=O)CCl)[C@@H](C)C[C@H]2[C@@H]3CCC4=CC(=O)C=C[C@]4(C)[C@@]3(F)[C@@H](O)C[C@@]21C (stereo not given in full)
    4, 9, -4, -7, -7, -42, -0.9
> CCOC(=O)[C@@H](CCc1ccccc1)N[C@H](C)C(=O)N1[C@H](C(=O)O)C[C@@H]2CCC[C@@H]21
    0, -4, -1, 0, -3, -11, -0.9
> CCOc1cc(N)c(Cl)cc1C(=O)NCC1CN(Cc2ccc(F)cc2)CCO1 (stereo not given)
    2, -8, -1, -6, -6, 8, -1.0
> CC(=O)Nc1ccc(OCC(O)CNC(C)C)cc1 (stereo not given)
    0, -1, 0, -10, -4, 22, 0.7
> COc1cccc(CNCCc2c[nH]c3ccccc23)c1OCc1ccccc1F
    20, -15, 18, 27*, -8, -17, -0.5
> CN(C)CCN(Cc1ccccc1)c1ccccn1
    -2, -12, 2, 0, -9, -4, 2.6
> CN/C(=C\[N+](=O)[O-])NCCSCc1csc(CN(C)C)n1
    0, 2, 4, 12, -3, 4, -1.3
> COc1cc(OC)c(C(=O)CCCN2CCCC2)c(OC)c1
    0, 0, 9, -17, 6, 7, 0.2
> Cc1cnc(NC(=O)C2=C(O)c3ccccc3S(=O)(=O)N2C)s1
    0&0&0&1, -4&-9&4&3, 0&1&0&-7, 1&-16&15&-7, -3&-1&-5&-1, 3&6&12&10, -1.3&1.1&-2.3&0.3
> COCCCOc1ccnc(CS(=O)c2nc3ccccc3[nH]2)c1C (stereo not given)
    0, -4, -4, -33, -1, 0, 0.0

A stretch from the list above, for reference:
Each structure is followed by: CHRM5 agonist, CHRM5 PAM, M5 antag, M4 antag, CHRM4 PAM, CRFBP-R2 block, CRFR2-BP ag
> Cc1cnc(NC(=O)C2=C(O)c3ccccc3S(=O)(=O)N2C)s1
    0&0&0&1, -4&-9&4&3, 0&1&0&-7, 1&-16&15&-7, -3&-1&-5&-1, 3&6&12&10, -1.3&1.1&-2.3&0.3
> COCCCOc1ccnc(CS(=O)c2nc3ccccc3[nH]2)c1C (stereo not given)
    0, -4, -4, -33, -1, 0, 0.0

Further structures follow:
Each structure is followed by: CHRM5 agonist, CHRM5 PAM, M5 antag, M4 antag, CHRM4 PAM, CRFBP-R2 block, CRFR2-BP ag
> C[C@H]1C[C@H]2[C@@H]3CCC4=CC(=O)C=C[C@]4(C)[C@@]3(Cl)[C@@H](O)C[C@]2(C)[C@@]1(O)C(=O)CO
    0, -11, 4, 7, -9, 3, 0.8
> CCN(CC)CCNC(=O)c1cc(S(C)(=O)=O)ccc1OC
    0, -1, -4, -3, -3, 4, -1.8
> Nc1c(C(=O)c2cccs2)sc2nsc(SCCN3CCCCC3)c12
    121*, -21, 47*, 42*, -14, -125, 147*
> COc1ccc2c(c1)c(CC(=O)OCC(=O)O)c(C)n2C(=O)c1ccc(Cl)cc1
    0, -1, 3, -8, 5, 8, 1.6

The list is partial; count on the stated rates, not on these rows.
